StopGo FLuc: lowers the firefly signal of an FMDV 2A StopGo reporter; HEK cells with a luciferase reporter of 2A StopGo recoding; Potency, µM (top dose mostly 57.5 µM), without a hit: at the highest dose signal change, negative = less light; 0.23% of 120,000 active; active = well fitted falling curve with a large enough effect; inconclusive = small, poorly fitted or top-dose-only effect; inactive = no such curve, though single readings can be large or run the other way; further: nearly all actives have a fitted effect of over 60% in size; overnight with compound
StopGo RLuc: FMDV 2A StopGo reporter, Renilla signal; HEK cells with a luciferase reporter of 2A StopGo recoding; Potency, µM (titrated, usually from 57.5 µM), for the others: at the highest dose signal change, negative = less light; 0.32% of 120,000 active; active means well fitted falling curve with a large enough effect; inconclusive means small, poorly fitted or top-dose-only effect; inactive means no such curve, though single readings can be large or run the other way; further: nearly all actives have a fitted effect of over 55% in size; overnight with compound
* hit, by the source's call; ? = inconclusive; & = joins results of further samples; [ ] = dose if it differs, or a comment. On the % scale 0 is the no-effect control and ±100 the full control effect; potency means the concentration at half of the fitted maximal effect. The list is partial, so the mix of outcomes need not match the whole.

compound	StopGo RLuc	StopGo FLuc
CN(C)c1ccc(CNC(=O)c2ccccc2NC(=O)c2nsc3ccccc23)cc1	-15%	38%[activator]
CC(C)(C)OC(=O)N1CCC(c2nnc(SCc3ccccc3Cl)o2)CC1	5%&0%	7%&13%
CC1=NS(=O)(=O)c2cc(C(=O)Nc3ccc(C)cc3C)ccc2N1CC(C)C	20%	10%
CCN(CCC(F)(F)F)C(=O)Cc1c[nH]c2ccccc12	-4%	-4%
COc1ccc(NC(=O)C(=O)NCc2ccco2)c(OC)c1	-10%	49%[activator]
C[C@@H](NCCCc1cccc(C(F)(F)F)c1)c1cccc2ccccc12	6%	-10%
NC(N)=NC(N)=Nc1ccccc1	-1%&6%	12%&15%
O=C(CSc1nnnn1-c1ccccc1)Nc1ccc2c(c1)OCCO2	6%	63%[activator]
COc1ccc(-c2ocnc2C(=O)NCc2ccc(OC)c(OC)c2)cc1	?	?
Cc1ccc(Cl)cc1NCC(=O)N1CCN(S(C)(=O)=O)CC1	0%	0%
Oc1ccc(Cl)cc1C=NCc1ccccc1F	5%	2%
COc1ccc(C(=O)Nc2cc(C)c(O)c(-c3nc4ccccc4s3)c2)cc1OC	-17%	-10%
Cc1ccc(NC(=O)C2CCCN2S(=O)(=O)c2ccc3c(c2)n(C)c(=O)c(=O)n3C)cc1 (stereo not given)	?	-1%
O=c1oc2ccccc2c(NC2CCCCC2)c1NS(=O)(=O)c1ccc(Cl)cc1	42%[activator]	-5%
COc1ccc(-c2cc(=O)oc3cc(OCC(=O)NCCN4CCOCC4)ccc23)cc1	12%	24%
COc1ccc2c(c1)-c1nc(NC(=O)c3cc(OC)c(OC)c(OC)c3)sc1CC2	18%	20%
CCC(=O)Nc1sc2c(c1C#N)CCC(C(C)(C)C)C2 (stereo not given)	7%	0%
N#Cc1nc(-c2cccs2)oc1NCCN1CCOCC1	10%	27%
Cc1ccc(-n2nc(CO)c(C(=O)NCc3ccccn3)n2)cc1C	17%	56%[activator]
COc1ccc(NC(=O)C2CCN(C(=O)N3CCOc4ccccc43)CC2)cc1	-11%	-12%

(further entries)
compound	StopGo RLuc	StopGo FLuc
CCCn1nc(C(=O)Nc2ccn(C)n2)c2ccccc2c1=O	31%[activator]	53%[activator]
CCCCc1c(C)nc(N2CCN(C)CC2)[nH]c1=O	-5%	2%
CCN(Cc1cccs1)C(=O)c1cccc(C#N)c1	-4%[1.06 µM]	6%
Nc1ncnc2c1ncn2[C@@H]1O[C@H](COP(=O)(O)O)[C@@H](O)[C@H]1O	4%	18%[11.5 µM]
Cc1ccc(NC(=O)COC(=O)c2cccc3c(=O)c(C)c(-c4ccccc4)oc23)cc1	11%	13%
CC1CCc2nc3ccccc3c(C(=O)Nc3ccc(Br)cc3F)c2C1 (stereo not given)	1%	10%
Cc1ccc2c(COC(=O)COc3ccc(Br)cc3)cc(=O)oc2c1C	-13%	2%
COc1ccccc1OCCn1cc(C(=O)C2CC2)c2ccccc21	-12%	3%
COc1ccc(-n2ncc(C(=O)NCCCN3CCCCC3)c2C2CCN(C(=O)OC(C)(C)C)CC2)cc1	-4%	-27%
CCN(CC)S(=O)(=O)c1ccc2oc(C(=O)Nc3cc(C)ccc3OC)c(C)c2c1	-2%	-15%
Cc1ccc(OCC(=O)Nc2ccc3nc(SCC(=O)N4CCc5ccccc54)sc3c2)cc1	-7%	-20%
Nc1cccc(OCCCc2ccccc2)c1	1%	180%[activator]
COCCn1c(Cc2ccccc2)n[nH]c1=S	-10%[1.06 µM]	0%
COC(=O)c1ccc(OC(=O)c2ccc3c(c2)NC(=O)CS3)c(OC)c1	8%	56%[activator]
CCN(CC)c1nn2c(=O)c(C(=O)NCCc3ccc(C)cc3)cnc2s1	-7%	-7%
O=C(NCc1cccnc1N1CCOCC1)c1cnn(-c2ccc(F)cc2)c1-n1cccc1	-17%	-25%
CCC(=O)NCc1nc2ccccc2n1Cc1ccccc1	-4%	-16%
COc1ccccc1CNC(=O)c1ccc2c(c1)N(Cc1c(F)cccc1Cl)C(=O)CS2	0%	21%
Cc1nnc(NC(=O)c2csc(NCCC(C)C)n2)s1	61%[activator]	285%[activator]
CCCOc1ccc(C(=O)N(Cc2cccs2)C2CCS(=O)(=O)C2)cc1 (stereo not given)	-5%	-12%

(next part)
compound	StopGo RLuc	StopGo FLuc
CCOC(=O)c1cnc2c(OC)cccc2c1Nc1cc(C(=O)O)ccc1C	14%	-3%
CC(Oc1ccc(Cl)cc1Cl)C(=O)NC(c1ccccc1)c1ccccc1 (stereo not given)	12%	7%
CONC(=O)CCN1C(=O)CSc2ccccc21	0%	-8%
CCc1ccccc1NC(=O)c1nnn(Cc2ccc(Cl)cc2)c1N	3%	-15%
CC(=O)Nc1ccc(Nc2cc(C(C)C)nc3c(-c4ccccc4)cnn23)cc1	-30%	0%
CCCCCCCCCCS(=O)CCCl (stereo not given)	-18%	-11%
CC(NC(=O)/C(=C\c1ccc(Br)cc1)NC(=O)c1ccc(Br)o1)C(=O)O (stereo not given)	2%	1%
Cn1cc(C(=O)OCC(=O)NC2CC2)c2ccccc21	-1%	36%[activator]
CC(CSC(=O)c1ccccc1)C(=O)N1C[C@@H](Sc2ccccc2)C[C@H]1C(=O)O (stereo not given in full)	-6%[23.8 µM]	-11%[27 µM]
COC(=O)c1ccc(CSc2nc3c([nH]c4ccccc43)c(=O)n2-c2ccc(F)cc2)o1	-13%	-11%
Cc1nc(Cc2nn3c(-c4ccc(Cl)cc4F)nnc3s2)cs1	-8%	17%
CC(NC(=O)NCc1ccn[nH]1)c1ccc2c(c1)OCCCO2 (stereo not given)	-8%	-5%
CCOC(=O)c1ccccc1NC(=O)N1CCc2c(sc(C)c2CC)C1c1ccccc1 (stereo not given)	-5%	2%
Cc1c(C#N)c(N)nc2c3c(sc12)NC(=O)CC3c1ccc(F)cc1 (stereo not given)	10%	-3%
CC1(C)CCC(NC(=O)C2CCC2)c2ccccc21 (stereo not given)	20%	2%
Cc1ccc(C(=O)C(=O)O)cc1	22%	25%
O=C(NCc1ccc(Cl)cc1)c1ccc2c(c1)NC(=O)C(CS(=O)(=O)Cc1ccc(F)cc1Cl)N2 (stereo not given)	-5%	-1%
COc1cccc(CC(=O)Nc2c(C(=O)N3CCN(c4ccccc4F)CC3)oc3ccccc23)c1	169%[activator]	30%[activator]
COc1ccc(NC(=O)Nc2nnc(N3CCCC3)s2)cc1OC	-8%	10%
CCCc1nn2c(=O)cc(COC(=O)c3cccc(NC(=O)COc4ccc(F)cc4)c3)nc2s1	-10%	-16%

Of the compounds above, these have a cyano group:
compound	StopGo RLuc	StopGo FLuc
CCC(=O)Nc1sc2c(c1C#N)CCC(C(C)(C)C)C2 (stereo not given)	7%	0%
N#Cc1nc(-c2cccs2)oc1NCCN1CCOCC1	10%	27%
CCN(Cc1cccs1)C(=O)c1cccc(C#N)c1	-4%[1.06 µM]	6%
Cc1c(C#N)c(N)nc2c3c(sc12)NC(=O)CC3c1ccc(F)cc1 (stereo not given)	10%	-3%

(continued)
compound	StopGo RLuc	StopGo FLuc
CN1CCN(C(CNC(=O)c2c(F)cccc2F)c2ccc3c(c2)OCO3)CC1 (stereo not given)	11%	-4%
N#Cc1ccc(COC(=O)C2CCCCC2)cc1	-13%	7%
O=C(O)Cn1c(C(=O)Nc2nc(-c3ccccc3Cl)cs2)cc2ccccc21	-1%	-13%[11.5 µM]
CC1CCN(C(=O)COc2cc(O)c3c(=O)cc(-c4ccccc4)oc3c2)CC1	1%	12%
CCC1CCC(N(C)C(=O)c2ccc(OC(F)F)cc2)CC1 (stereo not given)	8%	0%
Cc1cccc(Nc2nc(-c3ccc(C)cc3C)cs2)c1	?	51%[activator]
C=CCNC(=O)NC(=O)CN(CC(=O)Nc1c(C)cccc1C)CC(=O)Nc1c(C)cccc1C	24%	4%
CCNC12CC3CC(CC(C3)C1)C2	-3%	-10%
O=C1N(CCc2ccccc2)c2ccccc2C1(O)c1c[nH]c2ccccc12 (stereo not given)	-24%	?
COc1cccc(Oc2c(C)oc3cc(OS(C)(=O)=O)ccc3c2=O)c1	?	?
O=C(O)C(CO)NS(=O)(=O)c1ccc(Br)cc1 (stereo not given)	-6%	3%
C#CCNC(=O)CN1CCC(CN2CCCCCC2)CC1	2%	-6%
CC(=O)Nc1cc(-c2nc3cc(C)ccc3o2)ccc1Cl	0%	37%[activator]
CC(CNC(=O)c1nn(C)c(=O)c2ccccc12)N1CCCC1 (stereo not given)	-4%	9%
CCC1(C)CC(=O)c2c(ccc3oc(C(=O)Nc4ccc(C(C)=O)cc4)c(C)c23)O1 (stereo not given)	26%	13%
CN(Cc1ccccc1)C(=O)c1cc(-c2cccc(Cl)c2)on1	172%[activator]	113%[activator]
CC1CCN(C(=O)CSc2nnc(-c3ccccc3)o2)CC1	-4%	45%[activator]
COc1ccc(N(C(=O)c2ccccc2C)S(=O)(=O)c2ccc3c(c2)n(C)c(=O)n3C)cc1	-8%	-16%
O=C(c1ccccc1)N1CCN(CCc2ccccn2)CC1	-9%	-16%
COc1ccc(CC(=O)NO)cc1	6%	18%

(further entries)
compound	StopGo RLuc	StopGo FLuc
Cc1nc2cccnc2n1-c1cc(C(=O)Nc2ccc(F)cc2Cl)ccc1Cl	15%	8%
Cc1ccc(-n2nc(C)c3nc(CCC(=O)Nc4cccc(C)c4C)c(=O)n(C)c32)cc1	-11%	-9%
CCNc1c(NC(=O)Nc2cccc(Cl)c2)c(=O)oc2ccccc12	-12%	-17%
COc1cc(C#N)cc(Cl)c1OCc1ccc(C#N)cc1	6%	11%
COCCCNC(=O)c1ccc(Cn2c(=O)c3ccccc3n(Cc3ccccc3C)c2=O)cc1	30%	20%
N#C/C(=C\c1ccccc1OCc1ccccc1F)C(=O)Nc1ccccc1C(F)(F)F	-11%	51%[activator]
CCOC(=O)c1c(SCC(=O)Nc2nc3ccc(C)cc3s2)nc(=O)[nH]c1C	1%	40%[activator]
CCc1ccc(NCc2cc3ccc(OC)cc3n(CC(=O)Nc3c(C)cc(C)cc3C)c2=O)cc1	-11%	-8%
Cc1cccc(-c2cc(=O)c3cc(NC(=O)c4ccccc4F)ccc3o2)c1	-4%	17%
Cc1ccc2oc(-c3cc(NC(=O)c4ccco4)ccc3Cl)nc2c1	2%	37%[activator]
O=C(COC(=O)c1cc2ccccc2[nH]1)NCc1ccccc1	-10%	-2%
CN(C(=O)c1cc2ccccc2o1)C(c1cccc(F)c1)c1ccccn1 (stereo not given)	0%	15%
COc1ccc(NC(=O)C(NS(=O)(=O)c2ccc3c(c2)CCCC(=O)N3)C(C)C)c(OC)c1 (stereo not given)	-12%	-5%
C=C(C)CN(CC)C(=O)CN1CCC(C(=O)NCCCO)CC1	-4%	1%
COc1cc(OC)c2c(C)c(CC(=O)N3CCCC3)c(=O)oc2c1	-7%	1%
CN(C)c1ccc(C(=O)Nc2sc(Nc3ccccc3)nc2C(N)=O)cc1	-10%	12%
CCCCCn1nc(C(=O)Nc2nc3ccc(OCC)cc3s2)c2ccccc2c1=O	7%	24%
COc1ccc2[nH]c(C)c(CCNC(=O)c3cc4ccccc4oc3=O)c2c1	9%	22%
Cc1c(-c2ccc(Cl)cc2)c(=O)oc2c(CN3CCCC3)c(O)ccc12	-10%	2%
CCNC(=O)c1c(NC(=O)c2nc(S(=O)(=O)CC)ncc2Cl)sc2c1CCCC2	-2%	0%

The list goes on.
compound	StopGo RLuc	StopGo FLuc
COc1cc2c(cc1OC)CN(Cc1cc(=O)c(OCc3c(F)cccc3Cl)co1)CC2	-3%	-7%
CCN1CCc2nc3sc(C(=O)c4ccccc4)c(N)c3cc2C1	-8%&24%	163%&117%[activator]
CC1(C)N=C(SCc2ccc(Cl)cc2)c2ccccc2N1	-7%	-9%
O=C(CCc1ncc(-c2ccccc2F)o1)Nc1ccc(S(=O)(=O)NC2CC2)cc1	-11%	-14%
Cn1nc(C(=O)Nc2ncc(Cc3ccc(Cl)cc3)s2)c2ccccc2c1=O	0%	8%
COc1cc(C2Nc3ccccc3-c3cc(C)nn32)ccc1O (stereo not given)	20%	30%
CC(=O)c1cc2ccccc2o1	-10%	-9%
CN(Cc1ccc2c(c1)OCCO2)S(=O)(=O)c1cnn(C)c1	112%[activator]	10%
Nc1nnnn1NCc1ccc(-c2ccccc2)o1	139%[activator]	157%[activator]
CCC(C)NC(=O)CN1C(=O)N(c2cccc(SC)c2)S(=O)(=O)c2ccccc21 (stereo not given)	0%	36%[activator]
Cc1ccccc1OCC(=O)Nc1c(NC2CCCCC2)c2ccccc2oc1=O	48%[activator]	2%
CC(=O)c1ccc2ccccc2c1OCc1ccccc1C#N	-5%[1.06 µM]	?
COc1ccc(NC(=O)NCc2c(-n3cccc3)sc3c2CCCC3)c(OC)c1	-8%	-7%
Cc1cc(C)cc(N2C(=O)NC(=O)C3(Cc4cc(C)ccc4N(C)C3)C2=O)c1 (stereo not given)	-19%	-7%
Cn1c(=O)nc2n(-c3ccc(Cl)c(Cl)c3)c3cc(Cl)ccc3cc-2c1=O	-7%	-20%
Clc1ccc(CSc2nc3ncccc3[nH]2)cc1	9%	151%[activator]

Compound activity from PubChem BioAssay.
